HCMV UL50-53 inh – inhibitors of HCMV UL50-UL53 interaction, biochemical, HTRF. HCMV UL50-UL53 nuclear egress complex (human cytomegalovirus). normalized percent inhibition. inhibition, % (concentration not given with the values). hit rate 0.15% among 190,000;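 active = both replicates at 50% or more, plus weaker picks with an unusually low signal ratio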;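 also: stock transfer was 100 nL into about 20 µL; 0% = negative control wells and 100% = wells with untagged competitor protein; inactives centre near -12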
Sa growth 42C – S. aureus growth inhibition at 42 and 30 °C, primary screen, LtaS inhibitor project, RN4220, two temperatures. hit rate 0.53% among 170,000. relative growth, % (no concentration beside the values). OD600, 20 h, 42 °C; stronger effect = lower value;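 active = growth at 42 °C up to 50% and 20 or more points under that at 30 °C, or under 10% at both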;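 also: 300 nL library stock went into each well; scaled to the means of positive and negative controls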
GIV-Gai inh – inhibitors of GIV peptide binding to Galpha-i3, primary screen, biochemical, fluorescence polarization, FITC-GIV GBA peptide, rat Galphai3. Guanine nucleotide-binding protein G(i) subunit alpha-3 (Rattus norvegicus), P08753. 90 min; stronger effect = lower value; scaled: aluminum fluoride 0%, vehicle 100%. percent of control (FP), % (no concentration beside the values). hit rate 0.42% among 210,000;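 active = replicate mean at 85% of control or lower, very high polarization wells dropped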;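 also: wells of about 15 µL received 100 nL stock; the first replicate is given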
Target sequence (P08753 whole entry, looked up): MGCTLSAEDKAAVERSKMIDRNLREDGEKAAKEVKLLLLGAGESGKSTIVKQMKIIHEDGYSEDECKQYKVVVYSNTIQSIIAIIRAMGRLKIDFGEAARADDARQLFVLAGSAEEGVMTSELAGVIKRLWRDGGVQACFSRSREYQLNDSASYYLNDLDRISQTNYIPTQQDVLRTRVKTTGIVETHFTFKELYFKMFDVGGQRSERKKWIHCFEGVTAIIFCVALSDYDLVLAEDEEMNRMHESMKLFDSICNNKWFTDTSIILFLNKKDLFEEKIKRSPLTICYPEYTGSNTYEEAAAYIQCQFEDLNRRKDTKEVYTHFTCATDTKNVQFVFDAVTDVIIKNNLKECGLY
Sa growth 42C second temp – recorded beside Sa growth 42C, whose call it bears; relative growth, %; measured here: growth at 30 °C;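 optical density after 20 h as mean of two plates; 100% = untreated growth and lower means inhibition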
The depositor's hits bear a star; x = no result given; & = joins results of further samples.

1: CCCN(CC(=O)Nc1ccc(Cl)cc1Cl)CN1C(=O)NC2(CCCC2)C1=O
2: O=C(COC(=O)c1cccs1)Nc1c(F)c(F)c(F)c(F)c1F
3: O=C(Nc1cc(C(F)(F)F)ccc1F)C1CCC1
4: CNC(=O)NC(=O)C(C)N1CCc2ccccc2C1 (stereo unspecified)
5: CCn1cc(Br)c(C(=O)N2CCN(c3ccccc3)CC2)n1
6: COCC(=O)Nc1ccc2nc3n(c(=O)c2c1)CCCCC3
7: O=C(CSc1nnc(-c2ccco2)o1)c1cc2c3c(c1)CC(=O)N3CCC2
8: CSc1ncc(Cl)c(C(=O)Oc2ccccc2F)n1
assay / compound	1	2	3	4	5	6	7	8
HCMV UL50-53 inh	-34	-6	8	-9	9	4	-24	-18
Sa growth 42C	94	86	102	104	100	114	71	97
Sa growth 42C second temp	79	98	103	101	102	87	57	84
GIV-Gai inh	x	x	108	x	105	105	x	106

9: Brc1ccc(CSc2c[nH]c3ccccc23)cc1
10: Cc1ccc(CS(=O)Cc2ccc(C(=O)N3CCC(C(N)=O)CC3)o2)cc1 (stereo unspecified)
11: Cc1ccnc(NS(=O)(=O)c2ccccc2)n1
12: CCn1c(=O)c(N2CCC(C(=O)NC3CCCCC3)CC2)c(C)n(-c2ccccc2)c1=O
13: COc1ccc(NC(=O)CCc2c(C)nc3cc(-c4ccc(OC)cc4OC)nn3c2C)cc1
14: CCc1cc2c(=O)c(Oc3ccc(F)cc3)coc2c(CN(C)C)c1O
15: Cc1ccc(-c2cc(C(=O)Nc3nnc(C)s3)c3ccccc3n2)cc1
16: CCOC(=O)C1CCN(C(=O)Cn2cnc3nc(SCC)ncc3c2=O)CC1
assay / compound	9	10	11	12	13	14	15	16
HCMV UL50-53 inh	x	-14	-20	-30	-5	-15	-16	0
Sa growth 42C	48	96	113	x	102	93	x	x
Sa growth 42C second temp	57	88	94	x	85	89	x	x
GIV-Gai inh	96	102	107	113	105	x	191	102

Complete entries, looked up by structure. Values in the order: HCMV UL50-53 inh, Sa growth 42C, Sa growth 42C second temp, GIV-Gai inh
Results for `CCn1c(=O)c(N2CCC(C(=O)NC3CCCCC3)CC2)c(C)n(-c2ccccc2)c1=O` → -30, x, x, 113
Results for `CCc1cc2c(=O)c(Oc3ccc(F)cc3)coc2c(CN(C)C)c1O` → -15, 93, 89, x

Next results follow:
17: Cc1cccc2cc(C(c3nnnn3Cc3ccccc3)N3CCN(C(=O)c4ccco4)CC3)c(=O)[nH]c12 (stereo unspecified)
18: N#CCSc1n[nH]c(=O)n1-c1ccc(Cl)cc1
19: COc1ccc(N2CCN(c3nc4ccc(C)cc4n4nnnc34)CC2)cc1
20: Cc1nc2ncnn2c(C)c1CCC(=O)N1CCCCC1
21: Cc1ccc(-c2noc(-c3scc(-c4cccc(C)c4)c3-n3cccc3)n2)cc1
22: O=c1nccc(NCc2ccco2)[nH]1
23: O=S(=O)(CCN1CCOCC1)c1ccc(OC(F)(F)F)cc1
24: Cc1ccsc1CN1CCN(Cc2ccccc2)CC1
assay / compound	17	18	19	20	21	22	23	24
HCMV UL50-53 inh	-9	-2	x	x	10	x	8	0
Sa growth 42C	93	115	122	73	x	81	101	110
Sa growth 42C second temp	91	100	91	93	x	89	93	77
GIV-Gai inh	101	95	100	109	102	101	104	101

25: Cc1cc(=O)oc2cc(OCC(=O)N3CCCC3)c(Cl)cc12
26: Cc1ccc(CCNC(=O)c2cccc3c2SCCC3=O)cc1
27: COc1ccc2c(c1)CC(C(=O)NCCCN1CCN(c3ccc(F)cc3)CC1)CO2 (stereo unspecified)
28: Cc1nc2c(c(C)c1CCC(=O)NCc1ccc(Cl)cc1)c(=O)n(C)c(=O)n2C
29: CCC(Sc1nc2c(sc3ccccc32)c(=O)n1CCCC(=O)NC1CCCC1)C(=O)Nc1cccc(OC)c1 (stereo unspecified)
30: CC(Sc1nnc(-c2cccnc2)o1)C(=O)c1ccccc1 (stereo unspecified)
31: CNC(=S)NNc1nc(N2CCOCC2)nc(N2CCOCC2)n1
32: Cc1ccc(C(=O)NCC(c2cccs2)S(=O)(=O)c2cccs2)cc1 (stereo unspecified)
assay / compound	25	26	27	28	29	30	31	32
HCMV UL50-53 inh	-28	x	x	-1	0	6	-16	x
Sa growth 42C	81	103	96	93	98	x	92	135
Sa growth 42C second temp	94	90	78	85	93	x	82	84
GIV-Gai inh	x	105	102	101	105	101	99	105

33: C=CCn1c(=N)n(CC(O)COc2ccc(C)cc2)c2ccccc21 (stereo unspecified)
34: Cn1cccc1/C=C/C(=O)OCC(=O)c1ccc(Cl)s1
35: CCC1CN(C(=O)N2CCC(C(=O)NCc3ccc(C)o3)CC2)c2ccccc2O1 (stereo unspecified)
36: Cc1cc(C)[nH]c(=S)n1
37: Cc1ccc(-n2ncc(C(=O)N3CCN(C4CCCCC4)CC3)c2C2CCN(C(=O)OC(C)(C)C)CC2)cc1
38: O=C(O)CCc1nnc2n(CCc3ccccc3)c(=O)c3ccccc3n12
39: O=C(c1ccc(Br)cc1)N1CCN(c2ccc(N3CCCCC3)nn2)CC1
40: Cc1cc(C)c2nc(C)cc(C(=O)N3CCN(C4CCCCC4)CC3)c2c1
assay / compound	33	34	35	36	37	38	39	40
HCMV UL50-53 inh	x	-22	-20	-17	x	x	-51	-37
Sa growth 42C	120	120	107	77	96	88	103	x
Sa growth 42C second temp	82	101	87	81	94	90	93	x
GIV-Gai inh	102	x	103	x	100	99	99	103

41: CCN(CC)S(=O)(=O)c1ccc(N2C(=O)CC3(CCCC3)C2=O)c(Cl)c1
42: Cc1cc2nc(COc3ccccc3)cc(=O)n2o1
43: COC(=O)c1ccc2c(=O)n(CC(C)O)c(SCc3cc(Cl)c4c(c3)OCCO4)nc2c1 (stereo unspecified)
44: O=c1[nH]cnc2c1nnn2Cc1ccc(Cl)cc1
45: COc1ccc(-c2noc(CSc3nc4ccc(C)cc4[nH]3)n2)cc1
46: Clc1ccc(SCc2noc(-c3ccsc3)n2)cc1
47: CC(C)NC(=O)C1CCN(C(=O)C(C(=O)c2ccccc2)n2cc(Cl)ccc2=O)CC1 (stereo unspecified)
48: CSc1nnc(-c2ccccc2)n1-c1ccccc1
assay / compound	41	42	43	44	45	46	47	48
HCMV UL50-53 inh	x	-5	-21	-1	-6	4	-3	7
Sa growth 42C	97	93	106	93	103	101	89	79
Sa growth 42C second temp	86	88	92	91	88	115	84	110
GIV-Gai inh	99	99	x	97	107	98	99	x

49: Cc1ccc(NC(=O)Nc2ccccc2SCc2cc(=O)n3c(ncn3CC(C)C)n2)cc1C
50: O=C(CCCCCn1c(=O)[nH]c2ccccc2c1=O)N1CCN(c2ccc(Cl)cc2)CC1
51: COc1ccc(NC(=O)CCNS(=O)(=O)c2cccc3nonc23)cc1
52: CSc1sc(C(=O)Sc2ccccc2)c2c1S(=O)(=O)N(C)c1ccccc1-2
53: O=C(C1CCN(c2ncnc3c2sc2ncccc23)CC1)N1CCN(c2ccc(F)cc2)CC1
54: Cc1ccc2c(c1)c(=O)c1ccccc1n2CC(=O)Nc1ccc(OC(F)(F)F)cc1
55: O=C(c1cc(S(=O)(=O)N2CCCC2)c[nH]1)N1CCN(c2cccc(Cl)c2)CC1
56: COc1cccc(-c2nc(N)nc(SC)c2C#N)c1
assay / compound	49	50	51	52	53	54	55	56
HCMV UL50-53 inh	-6	x	-90	-36	-35	-6	x	18
Sa growth 42C	x	102	105	97	x	x	93	102
Sa growth 42C second temp	x	74	91	88	x	x	99	103
GIV-Gai inh	103	102	101	102	119	106	105	109

57: CC(C)N(C(=O)CSc1nnc(-c2cccs2)o1)C(C)C
58: Cc1cc(=O)nc2c3ccccc3n(CC(=O)NC(C)c3ccc4c(c3)OCCO4)n12 (stereo unspecified)
59: Cc1cccc(C2NC(=O)c3c(sc4c3CCN(C)C4)N2)c1O (stereo unspecified)
60: COC(=O)c1c(NC(=O)c2ccoc2C)sc2c1CCC(C)C2 (stereo unspecified)
61: Cc1ccc(S(=O)(=O)N2CCCC(c3nc(-c4ccc5c(c4)OCO5)no3)C2)cc1C (stereo unspecified)
62: CCOC(=O)c1cnc2c(C)cc(Cl)cc2c1NCc1ccccc1
63: CC(C)Cn1cnc2nc(CSc3ccccc3NC(=O)C(C)C)cc(=O)n21
64: Cc1ccc(/C=C/C(=O)Nc2nc(-c3cccs3)ns2)cc1
assay / compound	57	58	59	60	61	62	63	64
HCMV UL50-53 inh	-32	4	-85	-25	-21	-12	-35	-26
Sa growth 42C	104	96	109	123	x	100	x	95
Sa growth 42C second temp	94	89	100	87	x	89	x	84
GIV-Gai inh	98	102	156	103	102	x	100	102

65: CN1C(=O)COc2ccc(-c3csc(NC(=O)c4cccnc4)n3)cc21
66: COC(=O)Cc1c(C)c2cc3c(c(C)c2oc1=O)OCN(CCc1ccc(F)cc1)C3
67: CCOc1ccc(N=C2SC(C(=O)Nc3cccc(Cl)c3)CC(=O)N2C)cc1 (stereo unspecified)
68: COc1ccc(NC(=O)Cn2cnc3onc(-c4ccc(Cl)cc4)c3c2=O)cc1OC
69: CCOC(=O)CCCc1sc(N)nc1-c1[nH]c(=O)[nH]c1C
70: CCN(C(=O)Cn1c(=O)oc2cc(S(=O)(=O)N3CCCCCC3)ccc21)c1cccc(C)c1
71: Oc1ccccc1/C=N/n1cnnc1
72: COC(=O)/C(=C(/O)CSc1n[nH]c(=O)[nH]c1=O)c1nc2ccccc2[nH]1
assay / compound	65	66	67	68	69	70	71	72
HCMV UL50-53 inh	-12	-39	-24	2	-22	-16	-7	-12
Sa growth 42C	x	94	x	x	71	101	112	75
Sa growth 42C second temp	x	85	x	x	78	86	96	94
GIV-Gai inh	98	99	99	100	105	103	x	x

73: COc1ccc(-c2[nH]nc3nc(-c4cc(OC)c(OC)c(OC)c4)cc(C(=O)O)c23)cc1
74: CCn1c(C)nc2cc(-c3nnc4n3CCCCC4)ccc21
75: CCOc1ccccc1CNC(=O)c1c(C)oc2ncnc(N3CCOCC3)c12
76: NNC(=O)c1ccc(COc2cc(Cl)ccc2Cl)o1
77: CC1(C)CC(=O)C(C=NCC2CCNCC2)=C(O)C1
78: Cc1cc(C)cc(NS(=O)(=O)c2ccc3[nH]cc(C(=O)NCc4ccccc4Cl)c(=O)c3c2)c1
79: CC(=O)N(c1ccccc1)c1nc(/C=C/C(=O)N(Cc2ccco2)C2CCS(=O)(=O)C2)cs1 (stereo unspecified)
80: CC1CCCCN1C(=O)c1cc2c(=O)n3ccccc3nc2s1 (stereo unspecified)
assay / compound	73	74	75	76	77	78	79	80
HCMV UL50-53 inh	x	-18	x	-4	-26	x	-10	-44&-104
Sa growth 42C	107	82	86	78	90	134	89	101
Sa growth 42C second temp	90	93	89	81	84	104	99	84
GIV-Gai inh	107	x	107	x	106	112	x	105&103

81: Cc1ccc(-c2cc(-c3nnco3)c3ccccc3n2)cc1
82: CCOc1ccc2nc(SCC(=O)OC3CCCCC3)c(C)cc2c1
83: COc1cccc(CNC(=O)CN2C(=O)COc3ccc(S(=O)(=O)Nc4ccccc4)cc32)c1
84: CN(C)C(=O)COC(=O)c1c2c(nc3ccccc13)CCCCC2
85: CCOc1ccccc1NC(=O)c1nnn(CC(=O)Nc2ccccc2CC)c1N
86: CCCNC(=O)c1nnc(Cc2cccc(F)c2)o1
87: COc1cccc2c1c(NC(=O)c1nccnc1C(=O)O)nn2C
88: CCCN(Cc1cccs1)C(=O)Nc1ccc(Br)cc1F
assay / compound	81	82	83	84	85	86	87	88
HCMV UL50-53 inh	-36	-4	x	8	-20	1	-35	-7
Sa growth 42C	83	97	90	126	110	102	97	91
Sa growth 42C second temp	99	87	84	98	94	89	91	94
GIV-Gai inh	x	x	103	x	106	103	98	96

Compounds 84 through 85, quoted:
84: CN(C)C(=O)COC(=O)c1c2c(nc3ccccc13)CCCCC2
85: CCOc1ccccc1NC(=O)c1nnn(CC(=O)Nc2ccccc2CC)c1N
assay / compound	84	85
HCMV UL50-53 inh	8	-20
Sa growth 42C	126	110
Sa growth 42C second temp	98	94
GIV-Gai inh	x	106

Carrying on.
89: O=C1CC(c2ccco2)CC(O)=C1C=NCCN1CCN(C2OC(=O)c3ccccc32)CC1 (stereo unspecified)
90: CCCCNC(=O)Cn1ncc2c1-c1ccccc1OC2
91: CCOc1ccc(NC(=O)Nc2cc3c(cc2N2CCOCC2)n(C)c(=O)n3C)cc1
92: Cc1ccc(Cn2cccc(C(=O)N(C)c3ccccc3)c2=O)cc1
93: O=C(COCc1cc(-c2ccc3c(c2)OCO3)on1)Nc1cc(Cl)ccc1O
94: CC1CC(C)(C)OC(C(C)(C)CN(C)C)O1 (stereo unspecified)
95: Cn1c(NCc2ccccc2F)nc2ccccc21
96: Cc1ccc(CC(=O)N2CCN(C(=O)C3CCCO3)CC2)cc1 (stereo unspecified)
assay / compound	89	90	91	92	93	94	95	96
HCMV UL50-53 inh	-37	-11	-4	-19	x	-6	-4	-35
Sa growth 42C	93	89	x	110	119	99	106	111
Sa growth 42C second temp	72	88	x	89	95	89	87	95
GIV-Gai inh	107	99	100	107	101	x	107	102
